Screens (PubChem BioAssay)
Vaccinia mCherry = qHTS for Stage-Specific Inhibitors of Vaccinia Orthopoxvirus: mCherry Reporter Primary qHTS; 310,000 compounds, 0.63% hits; Vaccinia virus mCherry reporter infection, fluorescence; about a quarter of the inactives have no number; Potency, µM (doses to about 36.5 µM), for inactives: at the highest dose activity change, negative = inhibition, most hits filed as inhibitors; AID 720579, 2013; active = well fitted inhibition curve with a large enough effect; inconclusive = small, poorly fitted or top-dose-only effect; inactive = no such curve, though single readings can be large or run the other way; tested in A549 cells; note: nearly all actives have a fitted effect of over 35% in size; inactives centre near -10
Vaccinia Venus = qHTS for Stage-Specific Inhibitors of Vaccinia Orthopoxvirus: Venus Reporter Primary qHTS | Vaccinia virus Venus reporter expression, fluorescence | Potency, µM (doses to about 36.5 µM), for the others: top-dose activity change, negative = inhibition, usual class: inhibitors | 330,000 compounds, 0.46% hits | AID 720580, 2013; active means well fitted inhibition curve with a large enough effect; inconclusive means small, poorly fitted or top-dose-only effect; inactive means no such curve, though single readings can be large or run the other way; tested in A549 cells; note: nearly all actives have a fitted effect of over 30% in size; inactives centre near -10
* hit, by the source's call; i = inactive; ? = inconclusive; · = no result given; & = joins results of further samples; [ ] = another dose, or the depositor's remark. % is set by controls: 0 for no effect and ±100 for the full control effect; potency is the fitted concentration of half-maximal effect.

Compound	Vaccinia mCherry	Vaccinia Venus
O=C1[C@H]2[C@@H](c3ccc(F)cc3)N3C(=O)N(c4cccc(Cl)c4)C(=O)[C@@]3(Cc3ccccc3)[C@H]2C(=O)N1C1CCCCC1	-10.1%	-25.4%
COc1ccccc1C1NC(=O)c2ccccc2O1 (configuration not stated)	i	-13.7%
Cn1cccc1/C=C1/C(=O)NC(=O)N(Cc2ccc(F)cc2)C1=O	i	22.6%
O=[N+]([O-])c1ccc2c(c1)/C(=C/c1ccc(C=S)cc1)C=C2	-12.7%	2.1%
Cc1cccc(-c2c3c(nc4c2c(=O)n(C)c(=O)n4C)-c2ccccc2C3O)c1 (configuration not stated)	-23.0%	-8.4%
Cc1ccc(S(=O)(=O)NC(=O)Nc2cccc(C)n2)cc1	i	-1.1%
Cc1ccc(Cl)cc1N(C(=O)c1csnn1)C(C(=O)NC1CCCC1)c1ccco1 (configuration not stated)	-24.0%	-14.1%
CCOC(=O)N1CCN(S(=O)(=O)c2cccc3nsnc23)CC1	·	?
CCC(=O)N1CCN(c2ccc(NC(=O)c3ccc(N4CCCC4)c([N+](=O)[O-])c3)cc2)CC1	-13.7%	10.4%
COCCn1c(=NC(=O)C2COc3ccccc3O2)sc2cc(S(N)(=O)=O)ccc21 (configuration not stated)	-13.8%	-9.6%
Cn1c(C(O)c2ccc3c(c2)OCO3)nc2ccccc21 (configuration not stated)	·	-10.9%
O=C(NNC(=O)c1nn(-c2ccc(F)cc2)ccc1=O)Nc1cccc(Cl)c1	-8.5%	-14.4%
CCCCCCOC(=O)/C=C/c1c(C)[nH]c(=O)[nH]c1=O	·	-7.3%
Cc1ccc(NS(=O)(=O)c2ccc(C(=O)NCc3ccncc3)cc2)cc1	-18.4%	-13.2%
COc1ccc(N(C(=O)CNC(=O)c2ccco2)C(C(=O)NCC2CCCO2)c2ccccc2)cc1 (configuration not stated)	-7.5%	-1.6%
COc1ccc(/C=N\NC(=O)c2ccc(=O)[nH]n2)cc1O	-9.7%	-7.2%
C=CCC(Nc1ccccc1)c1cccc(OC)c1OC (configuration not stated)	?	-8.8%
O=C(O)CCCCCCCCCCCc1ccccc1	3.4%	-6.0%
COC(=O)c1c(C(=O)OC)c2oc3ccccc3n2c1Cl	·	?
Cc1ccc(-c2cc3nc(-c4ccc(Br)cc4)cc(N)n3n2)cc1	-20.3%	-13.2%
COc1ccc2c(CNCc3ccc(C)o3)c(C(=O)O)n(Cc3ccccc3)c2c1	-1.5%	-11.3%
O=C(Nc1ccc2nc(-c3cccs3)c(-c3cccs3)nc2c1)N1CCCCC1	-16.9%	-17.7%
CCOc1ccccc1C(=O)N/N=C/c1coc2ccc(C)cc2c1=O	i	-17.2%
COc1ccc(NC(=O)c2cc(C3CCCCN3S(=O)(=O)c3cn(C)cn3)on2)c(C)c1 (configuration not stated)	-6.3%	16.8%
C=CCn1c(-c2cccnc2)n[nH]c1=S	-12.7%	-1.9%
CC1CCC2(CC1)NC(=S)N(c1ccccc1)N2 (configuration not stated)	-17.9%	-11.6%
CC(=O)Nc1cc(ON=C(C)C)cc([N+](=O)[O-])c1	i	-8.9%
C[C@@H]1CN([C@H](C)CO)C(=O)CCCn2cc(nn2)CO[C@H]1CN(C)C(=O)Nc1cccc(Oc2ccccn2)c1	-1.9%	-14.4%
CC(S(=O)(=O)c1ccccc1)S(=O)(=O)c1ccccc1	i	0.3%
CCCCCCCC(=O)Nc1cc(C(=O)NCc2ccc(C)cc2)ccc1N1CCC2(CC1)CC(c1ccccc1)=NO2	i	-23.4%
Cc1ccccc1OC(C)C(=O)NC1CCCC1 (configuration not stated)	-9.5%	-7.8%
CC1Cc2ccccc2N1C(=O)CCS(=O)(=O)c1cccc2nonc12 (configuration not stated)	-31.8%	-12.6%
COc1ccccc1CN(Cc1nc2ccccc2c(=O)[nH]1)C(=O)Nc1ccccc1	-13.4%	-6.3%
O=C(CC1(CC(=O)N2CCOCC2)CCCC1)Nc1ccc(F)cc1	-3.7%	0.0%
CCOc1ccc(NC2CCN(C(C)=O)CC2)cc1	47.0%[activator]	-3.9%
CCc1ccc2occ(CC(=O)Nc3c(C(=O)Nc4ccc(OC)cc4)oc4ccccc34)c2c1	-20.9%	-21.5%
Clc1ccccc1C(c1ccccc1)(c1ccccc1)n1ccnc1	-23.7%	-15.5%&-28.6%
Cc1nc(S(=O)(=O)c2ccc(Cl)cc2)nc2c1CCC2	-4.3%	-11.8%
Cc1cccc(C)c1NC(=O)CCS(=O)(=O)c1ccc2c(c1)n(C)c(=O)c(=O)n2C	-14.8%	-16.1%
CCOC(=O)C1(C)CCN1C(=O)c1ccccc1Br (configuration not stated)	37.4%[activator]	6.7%
COc1ccc(CCN=C(N)NS(=O)(=O)c2ccccc2)cc1	-18.3%	-16.6%
Cc1ccc(NC(=O)Cn2ccc([N+](=O)[O-])n2)cc1Cl	-23.0%	-8.4%
COC(=O)c1n[nH]n(-c2ccccc2)c1=O	-3.6%	2.8%
CCOC(=O)NC(=O)C(=CNc1cccc(C)c1)C(=O)NC(=O)OCC	i	1.2%
O=C(CCN1C(=O)COc2ccccc21)NCCCN1CCc2ccccc2C1	-17.9%	-21.5%
O=C(NCc1ccco1)c1ccc(CS(=O)c2ccccc2Cl)o1 (configuration not stated)	i	-11.9%
Cc1ccc(C)c(N2CCN(S(=O)(=O)c3ccc4c(c3)CC(=O)N4C)CC2)c1	-12.2%&-9.1%	-2.3%&-3.3%
CC(=O)Oc1ccc2c(c1)OC(c1ccccc1)CC21CC(C)(C)NC(=S)N1 (configuration not stated)	·	-25.2%
CCOC(=O)c1c(C(F)(F)F)nc2ncccn12	-7.5%	-8.7%
CCOC(=O)c1c(N)sc(C(C)=O)c1C	-26.1%	-5.2%

More records:
Compound	Vaccinia mCherry	Vaccinia Venus
O=C(NC(=O)c1ccccc1Cl)C(=O)Nc1ccc(Cl)cc1	-10.7%	-2.9%
O=[N+]([O-])c1ccc(O)c(/C=N/n2c(CO)nc3ccccc32)c1	-16.9%	-4.8%
Cc1cccc(NC(=O)/C(=C\c2cccs2)NC(=O)c2ccccc2)c1	-2.5%[1.46 µM]	-21.9%
COC(=O)Cc1n[nH]c(=S)[nH]c1=O	-8.2%	-0.9%
CC(C)NC(=O)C1(C)CSCC(=O)N1CC(F)(F)F (configuration not stated)	-2.2%	0.8%
COc1ccccc1C(=O)OCC(=O)c1cccc([N+](=O)[O-])c1	-22.2%	-3.9%
CCOc1ccc2ncc(S(=O)(=O)c3ccccc3)c(N3CCN(c4ccccc4)CC3)c2c1	i	-0.8%
COCCNC(=O)CCn1c(=O)c2cc(OC)c(OC)cc2n(CC(=O)Nc2ccc(F)c(Cl)c2)c1=O	-1.8%	-8.6%
COc1ccc(CSc2nc3ccncc3n2CC(=O)Nc2ccc(C)c(F)c2)cc1	-11.7%	-4.3%
O=C(NCCN1CCOCC1)C1CC(=O)N(c2ccc(Cl)cc2)C1 (configuration not stated)	-4.4%	1.2%
CS(=O)(=O)N1CCC(N2CCN(Cc3ccc(F)cc3)C(=O)C2=O)CC1	-2.7%	6.0%
CCOc1ccc(NC(=O)c2oc3ccccc3c2NC(=O)COc2cccc(OC)c2)cc1	-15.4%	-9.5%
COc1cccc(SCc2noc(C(=O)NCCCN3CCOCC3)c2C(=O)NCCCN2CCOCC2)c1	-3.5%	-13.4%
COc1ccc(Cc2nnc(NC(=O)Nc3ccccc3)s2)cc1OC	-13.0%	-24.2%
CN1C(=O)CSc2ccc(NC(=O)NCCC3=CCCCC3)cc21	-13.5%	-26.8%
CCOC(=O)c1cccc(NC(=O)c2cc(S(=O)(=O)N3CCCC3)cn2C)c1	-7.1%	-6.5%
Cn1c(NCCN(CCO)CCCc2ccc([N+](=O)[O-])cc2)cc(=O)n(C)c1=O	i	-12.9%
CCN(CC)CCCN1C(=O)C(=O)/C(=C(/O)c2ccccc2)C1c1cc(OC)ccc1OC (configuration not stated)	-15.5%	-7.8%
O=P(O)(CP(=O)(c1ccccc1)c1ccccc1)c1ccccc1O	-7.7%	-7.3%
Nc1nc(N)nc(-c2ccccc2-c2nc(N)nc(N)n2)n1	i	-9.3%
CCOc1ncccc1C(=O)N1CCN(S(=O)(=O)c2ccccc2)CC1	-5.8%	-17.6%
COc1ccc(-c2cc(C(=O)N3CCc4c(cnc(C)c4CNC(=O)c4ccsc4)C3)[nH]n2)cc1	-5.3%	12.4%
Cc1cccc(NC(=O)C2(c3cccs3)CCOCC2)n1	-10.0%	-9.9%
O=C(NCc1ccccc1)c1cc(C2CCCN(C(=O)CCCc3ccccc3)C2)on1 (configuration not stated)	24.8%	-9.8%
O=C(NCc1ccco1)c1cc(S(=O)(=O)N2CCCc3ccccc32)ccc1Cl	i	-24.8%

Shown as labelled records: entries from further up.
COc1ccc(-c2cc(C(=O)N3CCc4c(cnc(C)c4CNC(=O)c4ccsc4)C3)[nH]n2)cc1
  Vaccinia mCherry: -5.3%	Vaccinia Venus: 12.4%

Cc1cccc(NC(=O)C2(c3cccs3)CCOCC2)n1
  Vaccinia mCherry: -10.0%	Vaccinia Venus: -9.9%

Single values from the entries so far.
Cn1c(NCCN(CCO)CCCc2ccc([N+](=O)[O-])cc2)cc(=O)n(C)c1=O in Vaccinia Venus is listed with -12.9%
COC(=O)Cc1n[nH]c(=S)[nH]c1=O in Vaccinia Venus is listed with -0.9%

The list goes on:
Compound	Vaccinia mCherry	Vaccinia Venus
COc1ccc(C)cc1N(C(=O)c1ccco1)C(C(=O)NC1CCCC1)c1ccc(N2CCOCC2)cc1 (configuration not stated)	-5.4%	-22.7%
CCOc1ccc(NC(=O)C(C)Sc2nnc(C)n2C)cc1 (configuration not stated)	-9.2%	-8.9%
Cc1cc(=O)[nH]c(SCC(=O)Nc2nonc2C)n1	-9.7%	4.2%
Cc1cccnc1C1=NOC(Cc2ccccc2)C(=O)N1Cc1ccc(F)cc1 (configuration not stated)	2.7%	9.4%
Cc1cc(C(=O)COC(=O)c2ccc(O)cc2O)c(C)n1-c1ccc(OC(F)F)cc1	-8.4%	-21.9%
CCOCCCN1C(=O)CN(C2CCCCC2)C(=O)C1c1ccc(OC)c(OC)c1 (configuration not stated)	0.0%	-4.7%
CC(=O)Nc1ccc(S(=O)(=O)Nc2nnc(C3CCCCC3)s2)cc1	-8.2%	-1.4%
Clc1ccc(C(c2ccccc2)c2ncc[nH]2)cc1 (configuration not stated)	-12.5%	-12.6%
Cc1nc(-c2ccc(Cl)cc2)sc1C1(C)CC(c2ccc(OC(F)(F)F)cc2)=NO1 (configuration not stated)	i	-9.7%
CC(C)CC(=O)Nc1ccccc1N1CCCC1	-14.9%	0.0%
CC1(C)NC(=O)N(CC(=O)OCC(=O)Nc2cc(S(=O)(=O)N3CCCCC3)ccc2Cl)C1=O	i	-0.3%
Nc1cc(=O)[nH]c(SCC(=O)N2N=C(c3ccc4ccccc4c3)CC2c2ccccc2)n1 (configuration not stated)	?	-11.0%
COc1ccc(-c2csc(NC3=NCCCCC3)n2)cc1	-5.2%	6.5%

Some of these compounds in order of heavy-atom count, high to low.
Compound	Vaccinia mCherry	Vaccinia Venus
COc1ccc(C)cc1N(C(=O)c1ccco1)C(C(=O)NC1CCCC1)c1ccc(N2CCOCC2)cc1 (configuration not stated)	-5.4%	-22.7%
Cc1nc(-c2ccc(Cl)cc2)sc1C1(C)CC(c2ccc(OC(F)(F)F)cc2)=NO1 (configuration not stated)	i	-9.7%
CC(C)CC(=O)Nc1ccccc1N1CCCC1	-14.9%	0.0%

2 compounds picked at random from those above:
Compound	Vaccinia mCherry	Vaccinia Venus
Cc1ccc(S(=O)(=O)NC(=O)Nc2cccc(C)n2)cc1	i	-1.1%
O=C(NC(=O)c1ccccc1Cl)C(=O)Nc1ccc(Cl)cc1	-10.7%	-2.9%
